# BasE inh: BasE siderophore enzyme inhibitors, primary screen, biochemical, Acinetobacter baumannii ATCC 17978, fluorescence polarization. inhibition, % (test concentration not listed). actives 0.1% (n = 84,000). purified BasE, fluorescence polarization binding displacement;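 active = both replicates above 25% with normal brightness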;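 note: 0% = negative plate control signal and 100% = positive plate control signal; stock transfer was 100 nL into about 30 µL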
# LANA-nucl inh: inhibitors of KSHV LANA-nucleosome binding, primary screen, biochemical, fluorescence polarization, FITC-LANA1-23, chicken nucleosomes; AID 720717, 2013; actives 0.3% (n = 51,000); z-score (no concentration beside the values); FITC-LANA1-23 / chicken nucleosome fluorescence polarization; stronger effect = lower value;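 active = both repeat wells score below -2 in polarization z-score versus plate sample wells, excluding overly bright wells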;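 note: 100 nL library stock added to about 30 µL; numbers are from one replicate; some results filed as inactive read as strong as hits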
#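 Assay system: purified chicken nucleosomes with FITC-labelled LANA N-terminal peptide (1-23) / Probe or stimulus: 50 nM FITC-LANA1-23 probe / Compound dosing: pin-transferred compound, 100 nL / Times: compound with peptide–nucleosome mix 10–45 min at room temperature / Technique: fluorescence polarization, 480 nm excitation, 535 nm parallel and perpendicular emission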
# * = called active by the depositor; nt = not tested or not shown; & = joins results of further samples. The list is partial, so the mix of outcomes need not match the whole.
SMILES,BasE inh,LANA-nucl inh
O=C(c1ccc(=O)[nH]c1)N1CCCSC1=Nc1cccc(C(F)(F)F)c1,0.4,nt
CCn1c2ccccc2c2cc(CN3CCN(C(=O)c4c(OC)cccc4OC)CC3)ccc21,1.7,nt
O=C(COc1coc(CN2CCc3ccccc32)cc1=O)Nc1ccc2c(c1)OCCO2,0.8,0.637
CC1CN(C(=O)c2cc3c(=O)n4ccccc4nc3s2)CC(C)O1 (stereo not given),0.7,2.34
O=C(c1nnc(-c2ccc(Cl)cc2)o1)C1CCCC1,-3.6,nt
CC(Sc1nnc(-c2ccc(Cl)cc2)n1C)c1nc2ccccc2c(=O)[nH]1 (stereo not given),2.1,0.513
CSC(=Nc1cc(C(F)(F)F)cc(C(F)(F)F)c1)N1CCCCC1,nt,-0.463
O=C(O)CC1NC(=S)N(Cc2ccccc2)C1=O (stereo not given),-0.3,-1.18
CN(C)C(=O)Nc1cnccc1C(F)(F)F,nt,-1.04
CC1(C)C2CCC1(CS(=O)(=O)N1CCc3ccccc31)C(=O)C2 (stereo not given),-2.3,nt
CCC(=O)Nc1ccc(Oc2ccc(C)cc2)cc1,1.5,nt
N=C(N)N1CCN(c2ccccc2)CC1,-0.9,0.917
CSc1nnc(CCCN)n1C1CCCC1,-0.8,nt
Cc1ccc(CNC(=O)C2(c3ccc(Cl)cc3)CCC2)n1C,-1.2,nt
COc1cc(NC(=O)C2CCCC2)c(C(=O)OCC(=O)N2CC(C)CC(C)C2)cc1OC (stereo not given),1.1,nt
Nc1ccc(C(=O)Oc2ccccc2)c(O)c1,nt,0.12
Cc1ccc(NCc2nnc(SCC(=O)c3ccc(C)cc3)n2C)cc1,-1.4,-0.955
Cc1nonc1C(=O)NCC(=O)O,0.8,-0.95
Cc1c(C(=O)/C=C/N(C)C)sc(=S)n1CCc1ccc(Cl)cc1,0.1,nt
CCCCCCn1nc(C(=O)OCc2nnc(-c3ccccc3)o2)c2ccccc2c1=O,-0.1,nt
O=C(CCn1cnc2ccccc2c1=O)Nc1ccccn1,1.5,-0.775
CCn1c(N2CCCC(C(=O)Nc3ncn[nH]3)C2)nc2ccccc21 (stereo not given),1.2,0.713
CCCCn1c(C)nc2ccccc21,-1.0,-0.538
Cc1ccccc1NC(=O)c1sc2nc[nH]c(=O)c2c1C,3.1,0.671
O=C(COC(=O)c1cc2c(s1)CCC2)c1ccc(Br)s1,1.6,nt
N#CCc1ccc(C(=O)c2ccc(Cl)cc2Cl)s1,nt,-0.534
Cc1ccc(N(CC(=O)NC(c2ccccc2)c2ccccc2)S(=O)(=O)N2CCCC2)cc1,2.6,nt
O=C(CSc1ccccc1)Nc1nnc(-c2ccccc2)o1,0.7,-0.511
CSc1nc(C)nc(N/C=C2\C(=O)c3ccccc3N(C)S2(=O)=O)n1,-3.7,1.84
CCCc1nnc2c3c4c(sc3ncn12)CCCC4,2.9,nt
COc1ccc(-n2c(SCC(=O)NC3CC3)nc3ccccc32)cc1,-6.9,nt
O=C(CSc1ncc(-c2ccccc2)n1-c1ccccc1)NCCN1C(=O)CSC1=O,1.6,nt
Cc1sc(NC(=O)C2CC2)c(C#N)c1C,1.3,0.514
Cc1cc(=S)[nH]c2ccccc12,-0.2,-0.829
O=c1c2c3c(sc2nnn1Cc1ccccc1)CCCC3,2.4,1.19
COc1cc(C(CC(=O)NCCN2CCOCC2)N2Cc3ccccc3C2=O)cc(OC)c1OC (stereo not given),0.8,-0.838
O=C1c2ccc(-c3nc4ccccc4c(=O)o3)cc2C(=O)N1c1ccc2c(c1)OCO2,2.0,-0.868
O=c1[nH]c(Nc2nc3ccccc3o2)nc(O)c1Cc1ccccc1,2.8,nt
CCOc1cc(/C=C2\SC(=O)N(C)C2=O)cc(Cl)c1OCC,0.3,-0.275
CC(C)C(=O)n1nc(-c2cccnc2)nc1NCc1ccccc1,0.3,-0.115
COc1cccc(-n2ccnc2SCC(=O)Nc2ccc(N3CCN(C)CC3)cc2)c1,1.1,nt
COc1ccc(OC(=O)C2CCN(S(=O)(=O)c3cccc4nsnc34)CC2)cc1,2.1,nt
COc1ccc(-c2nn(-c3ccccc3)cc2C(=O)Oc2ccccc2)cc1OC,-0.5,nt
CCOC(=O)C(C(=O)Nc1cccc(C)n1)C1CCCCC1 (stereo not given),0.6,nt
O=C(c1ccncc1)N(Cc1ccc2c(c1)OCO2)C1CCCC1,-2.0,nt
O=C(O)c1cnc(N2CCCCC2)nc1,-0.2,0.06
Cc1ccc2c(c1)-c1nc3nc(N)[nH]c(=O)c3cc1C(O)O2 (stereo not given),1.8,nt
CSc1nc2c(Cl)cccc2c2c1c(=O)[nH]n2C,-0.5,nt
CCc1ccc(C(=O)c2cnc3cc4c(cc3c2N2CCCC2)OCCO4)cc1,-4.0,1.9
Cc1nc(SCC(=O)N(Cc2ccco2)CC(F)(F)F)c2ccccc2n1,-1.1,nt
c1ccc(CSc2nnc(Cc3ccccc3)o2)cc1,-4.9,-1.75
C=CCNc1nc(C(=O)OCC(=O)N2CCN(c3ccc(OC)cc3)CC2)cs1,2.6,nt
O=S(=O)(c1ccccc1)N1CCN(S(=O)(=O)c2ccc3ccccc3c2)CC1,-2.4,-0.113
NS(=O)(=O)c1ccc(CNC(=O)CNC(=O)Cc2ccccc2)cc1,-5.1,nt
COC(=O)c1cc(NC(=O)COC(=O)C2CCC2)cc(C(=O)OC)c1,2.3,nt
C/C(=N\NC(=S)NCc1ccccc1)c1ccc(S(=O)(=O)NCc2ccco2)cc1,0.6,nt
COc1ccccc1CN(C)C(=O)c1cccc(S(=O)(=O)N2CCCC2)c1,-5.3,nt
COc1ccc(CCN2C(=O)CSC2c2ccc3cccc(O)c3n2)cc1OC (stereo not given),-0.5,1.12
CCCNC(=O)c1cc2c(Cl)ccc3c2n1CCO3,1.3,-0.473
c1ccc(-c2ccc3ccccc3n2)cc1,nt,0.959
# Further results
SMILES,BasE inh,LANA-nucl inh
NC1=NN=C(c2ccccc2)CS1,-0.1,-0.0065
CCOc1ccc(C(C(=O)NC2CCCC2)N(Cc2ccco2)C(=O)Cn2nnc3ccccc32)cc1OC (stereo not given),3.0,-0.738
CCOc1ccc(N(C(C)C(=O)NCc2ccc(C)cc2)S(C)(=O)=O)cc1 (stereo not given),-2.3,nt
NNC(=O)CNC(=O)c1cccs1,-0.5,1.02
CN(C)CCN(C(=O)C1=COCCO1)c1nc2ccc(F)cc2s1,-0.3,-0.035
O=C(COC(=O)c1c(F)cccc1F)c1cccs1,-1.8,nt
CCCC(=O)Nc1nonc1-c1ccc(OC)cc1,-2.8,1.5
CN(C(=O)CSc1nc(O)cc(=O)n1-c1ccccc1F)c1ccccc1,3.1,-0.642
Cc1ccc(S(=O)(=O)N2N=C(C(C)C)CC2(O)C(F)(F)F)cc1 (stereo not given),1.4,-0.137
CCOC(=O)C1=C(C)NC(=O)CC1c1ccccc1Cl (stereo not given),nt,-1.32
COc1ccc(/C=C/C(=O)C2CC2)cc1COc1cccc(C)c1C,1.0,nt
CCn1c(=NC(=O)c2cccs2)sc2cc(OC)c(OC)cc21,-1.1,-0.051
CN(C(=O)c1ccc(C#N)cc1)C1CCCCC1,1.3,nt
Cc1nc(-c2ccc(C(=O)N3CCCCC3)cc2)cs1,3.8,0.171
S=c1[nH]nc(Cc2ccccc2)n1Cc1ccco1,0.1,1.06

# Arranged by heavy-atom count (ascending): part of the list above.
SMILES,BasE inh,LANA-nucl inh
NC1=NN=C(c2ccccc2)CS1,-0.1,-0.0065
O=C(COC(=O)c1c(F)cccc1F)c1cccs1,-1.8,nt
Cc1nc(-c2ccc(C(=O)N3CCCCC3)cc2)cs1,3.8,0.171
Cc1ccc(S(=O)(=O)N2N=C(C(C)C)CC2(O)C(F)(F)F)cc1 (stereo not given),1.4,-0.137
CN(C)CCN(C(=O)C1=COCCO1)c1nc2ccc(F)cc2s1,-0.3,-0.035
CCOc1ccc(N(C(C)C(=O)NCc2ccc(C)cc2)S(C)(=O)=O)cc1 (stereo not given),-2.3,nt

# Additional compounds:
SMILES,BasE inh,LANA-nucl inh
Cn1c(=O)c2c(nc3sccn32)n(C)c1=O,0.7,nt
c1cncc(Oc2nc(-c3cccnc3)nc3ccccc23)c1,-2.6,nt
O=C(Cc1ccc(S(=O)(=O)N2CCCC2)s1)N1CCOCC1,1.5,nt
O=C(O)CSc1cc(Cl)ccc1Cl,-2.0,0.675
NS(=O)(=O)c1ccc(NC(=O)CSc2ccccc2)cc1,2.5,-0.051
Cn1c(C(=O)Nc2ccccc2)cc2sccc21,-0.4,0.0225
C(=C\c1ccccc1)/CN1CCN(CC2CCCCC2)CC1,1.1,0.304
COCC(C)n1c(COc2ccccc2F)nn(CN2C(C)CCCC2C)c1=S (stereo not given),0.6,nt
O=C(O)c1nc2ccc(S(=O)(=O)C(F)(F)F)cc2n1O,2.2,nt
O=C(Nc1ccc(N2CCOCC2)cc1)c1ccc2c(c1)S(=O)(=O)c1ccccc1C2=O,1.3,nt
COc1ccc(CNC(=O)C(C)N2CCC(c3nc4ccccc4o3)CC2)cc1 (stereo not given),0.4,nt
COc1ccc(OCC(O)CNC(=O)c2cccnc2Oc2ccc(Cl)cc2)cc1 (stereo not given),1.6,nt
c1nc(NCCCN2CCOCC2)c2c3c(sc2n1)CCCCC3,0.0,-0.524
Cc1ccc(Sc2ncccc2C(=O)O)c(C)c1,0.0,nt
CC(=O)N1C(C(=O)O)CSC1c1cccs1 (stereo not given),nt,0.569
COC(=O)c1scc(S(=O)(=O)C(C)(C)C)c1N,-1.8,nt
O=C1NC(=O)N(c2ccccc2)C(=O)C1=Cc1c2ccccc2cc2ccccc12,2.2,nt
CN1CCN(Cn2nc(-c3cccc(S(=O)(=O)N4CCOCC4)c3)n(Cc3ccc(F)cc3)c2=S)CC1,0.2,nt
COC(=O)C1=CN(Cc2ccc(OC)cc2)C=C(C(=O)OC)C1c1cccc(O)c1,0.2,-1.23
CC12CCC(CC1=NNc1nc3ccccc3o1)C2(C)C (stereo not given),-0.9,nt
CCC(C(=O)O)C(C)CC(=O)Nc1ccccc1Cl (stereo not given),1.1,0.0885
O=C(Nc1c(C(=O)N(Cc2ccc(F)cc2)Cc2cccnc2)oc2ccccc12)C1CC1,-2.7,nt
CCN(C(=O)c1cncn1-c1ccc(F)cc1)c1nc2c(C)cccc2s1,-1.3,nt
CCN1C(=O)c2cccc3c(S(=O)(=O)NC(Cc4ccccc4)C(=O)O)ccc1c23 (stereo not given),1.5,-0.142
CCC(C)NC(=O)/C=C/c1cc2c(cc1Br)OCO2 (stereo not given),nt,-0.384
CCc1ccc(OC(C)C(=O)N2CC(C(=O)OC)Oc3ccccc32)cc1 (stereo not given),-2.0,0.79
Cc1ccc(CN(C)C(=O)CN(C)S(=O)(=O)c2ccc(Cl)cc2)o1,-0.9,nt
COCc1nnc(NS(=O)(=O)c2ccc(OC)cc2)s1,2.3,nt
CN(Cc1ccccc1)C(=O)COC(=O)C1=NNC(=O)CC1,-0.1,nt
O=C(NCC(c1cccs1)N1CCc2ccccc2C1)C1CC1 (stereo not given),1.4,0.0455

# A few values from the results shown.
# CCC(C)NC(=O)/C=C/c1cc2c(cc1Br)OCO2 (stereo not given) in LANA-nucl inh = -0.384
# CCN1C(=O)c2cccc3c(S(=O)(=O)NC(Cc4ccccc4)C(=O)O)ccc1c23 (stereo not given) in BasE inh = 1.5
# O=C(Nc1c(C(=O)N(Cc2ccc(F)cc2)Cc2cccnc2)oc2ccccc12)C1CC1 in BasE inh = -2.7
# COC(=O)C1=CN(Cc2ccc(OC)cc2)C=C(C(=O)OC)C1c1cccc(O)c1 in LANA-nucl inh = -1.23
# CCC(C(=O)O)C(C)CC(=O)Nc1ccccc1Cl (stereo not given) in BasE inh = 1.1
# Cc1ccc(CN(C)C(=O)CN(C)S(=O)(=O)c2ccc(Cl)cc2)o1 in BasE inh = -0.9
# CCN(C(=O)c1cncn1-c1ccc(F)cc1)c1nc2c(C)cccc2s1 in BasE inh = -1.3

# Next structures follow.
SMILES,BasE inh,LANA-nucl inh
CCOC(=O)c1cc2c(=O)n3cccc(C)c3nc2n(C)c1=N,4.5,-0.272
OCc1c[nH]c2ccccc12,-5.8,nt
COCC(C)NC(=O)c1cccc(Cl)c1 (stereo not given),-1.4,0.923
O=C(N/C=C/c1ccco1)OCc1ccccc1,nt,-0.216
Cc1cccc(Cn2nc(C(C)(C)C)cc2C(=O)NCc2cccs2)c1,4.5,0.0465
Cc1c(O)nc2ccccn2c1=O,-0.2,2.05
CSc1[nH]c(=O)cc(C)c1C(=O)O,-1.3,nt
O=c1[nH]c2ccccc2c(O)c1-c1nc2ccccc2c(=O)[nH]1,-3.0,2.31
CSc1ccc(CN2CCN(Cc3ccco3)CC2)cc1,-1.3,-0.88
O=c1ccc2cc(O)c(O)cc2o1,-0.2&-1.2,-1.44&0.426
Cn1cnc(S(=O)(=O)NCC2CCN(S(=O)(=O)c3ccccc3)CC2)c1,5.2,nt
Cc1ccnc(N=Cc2c(C)[nH]n(-c3ccccc3)c2=O)c1,7.1,nt
CCc1ccc(-c2csc3ncn(CC)c(=O)c23)cc1,-1.3,-0.405
O=C(OCc1cc2c(cc1Br)OCO2)C1CC2CCCC(C1)C2=O (stereo not given),0.8,nt
C=CCOc1ccc(C(=O)NC2CC(C)(C)NC(C)(C)C2)cc1,-2.0,-0.2
CCCCNC(=O)c1cc(-c2ccc3c(c2)OCO3)on1,2.2,-0.521
CCOC(=O)c1sc2nccc(N(C)C)c2c1N,1.8,-0.162
O=C(NCCO)c1nc(NCCO)c2ccccc2n1,-1.5,0.602
Cc1cc(SCC(=O)O)n2c(nc3ccccc32)c1C#N,2.4,nt
Cc1ccsc1C(=O)N(C)Cc1ccc2c(c1)OCCO2,1.3,nt
